ClpP mod – qHTS Assay for Activators of ClpP; ATP-dependent Clp protease proteolytic subunit (Bacillus subtilis (strain 168)), P80244; actives 1.9% (n = 340,000); purified B. subtilis ClpP, FRET peptide cleavage, 20 min; Potency, µM (series often up to 57.5 µM), for inactives: top-dose activity change, negative = active; active = well fitted falling curve with a large enough effect; inconclusive = small, poorly fitted or top-dose-only effect; inactive = no such curve, though single readings can be large or run the other way; also: potency is read from the fitted curve at half-maximal effect; the source files actives as falling curves though it sought activators and does not explain the sign; nearly all actives have a fitted effect of over 65% in size; many hits overshoot -100%
Target sequence (P80244 whole entry, looked up): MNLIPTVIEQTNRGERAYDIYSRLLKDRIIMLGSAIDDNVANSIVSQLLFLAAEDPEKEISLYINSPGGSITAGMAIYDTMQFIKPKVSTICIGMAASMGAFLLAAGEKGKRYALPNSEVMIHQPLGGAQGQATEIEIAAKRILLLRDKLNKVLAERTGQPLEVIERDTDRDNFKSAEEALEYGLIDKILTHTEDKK
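Purified B. subtilis ClpP, 10 microg/mL final in Tris/HCl pH8 with KCl, BSA, glycerol and Tween-20, cleaved an Abz/nitrotyrosine-quenched decapeptide. Fluorescence (ex 320, em 430) was read at 0 and 20 min at room temperature. Delta was normalized to 5.8 microM ADEP and DMSO/no-enzyme controls.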
Sfp inh – inhibitors of Bacillus subtilis Sfp phosphopantetheinyl transferase; Potency, µM, without a hit: max response, negative = inhibition, actives largely listed as inhibitors; Q9F4F7; actives 3.5% (n = 310,000); AID 1490; Biochemical Sfp PPTase activity, qHTS; active = well fitted inhibition curve with a large enough effect; inconclusive = small, poorly fitted or top-dose-only effect, or another doubt; inactive = no such curve, though single readings can be large or run the other way;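 also: the enzyme is Sfp with the accession as filed and its product quenches rhodamine fluorescence; potency is read from the fitted curve at half-maximal effect; 0% = enzyme reaction without inhibitor and -100% = no enzyme wells; top concentration of the series not given in the record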
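Reaction rates are the 30-min fluorescence difference (ex 525, em 598 nm) in wells containing 15 nM Sfp, 5 uM rhodamine-CoA and 12.5 uM BHQ-2-YbbR at pH 7.6 with 10 mM MgCl2.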
gsp ag – activates gsp, the McCune-Albright syndrome mutation; gsp mutant cells, cAMP HTRF, 30 min; control for the full effect not named in the record; Potency, µM (series often up to 76.9 µM), for the others: at the top dose activation (cAMP increase), actives largely listed as activators; actives 0.13% (n = 340,000); active = well fitted activation curve with a large enough effect; inconclusive = small, poorly fitted or top-dose-only effect, or another doubt; inactive = no such curve, though single readings can be large or run the other way; cell line not stated here;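 also: phosphodiesterase inhibitor Ro 20-1724 added with compounds to block cAMP breakdown; potency is read from the fitted curve at half-maximal effect; nearly all actives have a fitted effect of over 60% in size; about a fifth of the inactives were tested at one dose only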
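Cells in DMEM/10% FBS with G418 were pretreated with compounds in DMSO plus […] (300 uM stock) for 30 min at 37C. cAMP was measured by HTRF (cAMP-d2 plus anti-cAMP antibody-K) after 30 min at room temperature.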
Menin-MLL FL inh – displaces fluorescein MLL peptide from human menin. Fluorescence polarization, fluorescein-MLL peptide displacement from menin. FP activity change, % at 61.4 µM. 290,000 tested, under 10 active; inconclusive = falling polarisation curve, or a change in total fluorescence; inactive = total fluorescence flat and polarisation flat or rising; no compound was filed as active; the % refers to the polarisation; negative = inhibition;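 also: % of control where 0% means no effect; inhibitors lower the polarisation; unlabelled MLL peptide was the positive control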
gsp antagonist – antagonizes gsp, the McCune-Albright syndrome mutation | gsp-mutant cells, cAMP HTRF, 30 min; control for the full effect not named in the record | actives 0.4% (n = 340,000) | Potency, µM (doses to about 76.9 µM), for the others: at the highest dose activity change, negative = inhibition, most hits filed as inhibitors; active = falling curve of any shape with a large fitted effect; inconclusive = falling curve, mostly with a smaller effect; inactive = flat or rising curve; cell line not stated here;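 also: intracellular cAMP measured with PDE inhibitor Ro 20-1724 present during compound exposure; potency is read from the fitted curve at half-maximal effect; % is scaled to controls: 0 for no effect and ±100 for the full control effect; nearly all actives have a fitted effect of over 65% in size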
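Cells in G418 medium, seeded 16-24 h, 37C; buffer exchange to DPBS + 1 mM CaCl2, 0.5 mM MgCl2, 0.05% BSA; cpds in DMSO + […] (300 uM stock), 30 min 37C; HTRF cAMP detection.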
PINK1 expr mod – PINK1 expression modulation; PINK1 immunofluorescence, high-content cytometry, 24 h; Potency, µM (titrated, usually from 76.6 µM), for the others: at the highest dose activation (PINK1 increase), actives largely listed as activators; actives 0.2% (n = 410,000); AID 624263; active = well fitted activation curve with a large enough effect; inconclusive = small, poorly fitted or top-dose-only effect; inactive = flat fitted curve, though single readings scatter; cell line not stated here;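 also: potency is read from the fitted curve at half-maximal effect; % of control where 0% means no effect; nearly all actives have a fitted effect of over 65% in size; a mitochondrial uncoupler was the plate control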
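Stable cell line, 250 cells/well, 12 h attachment; compounds pinned at 5 concentrations, 24 h; CCCP control. Fixed with nuclear dye, primary antibodies 12 h at 10 degrees C, secondary plus cell stain; laser-scanning cytometer read.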
D2 ag – agonists of human D2 dopamine receptor (beta-arrestin); DiscoveRx PathHunter D2 beta-arrestin, luminescence, 90 min; 100% = 57 uM dopamine signal; actives 0.084% (n = 360,000); activation, % (test concentration not listed); AID 624465; in the data active = activation above about 40%; inconclusive = about 15% to 40%; inactive = below about 15%; also: compound concentration not given in the record; the text of the record calls up to 30% inactive
Target sequence (P14416 whole entry, looked up): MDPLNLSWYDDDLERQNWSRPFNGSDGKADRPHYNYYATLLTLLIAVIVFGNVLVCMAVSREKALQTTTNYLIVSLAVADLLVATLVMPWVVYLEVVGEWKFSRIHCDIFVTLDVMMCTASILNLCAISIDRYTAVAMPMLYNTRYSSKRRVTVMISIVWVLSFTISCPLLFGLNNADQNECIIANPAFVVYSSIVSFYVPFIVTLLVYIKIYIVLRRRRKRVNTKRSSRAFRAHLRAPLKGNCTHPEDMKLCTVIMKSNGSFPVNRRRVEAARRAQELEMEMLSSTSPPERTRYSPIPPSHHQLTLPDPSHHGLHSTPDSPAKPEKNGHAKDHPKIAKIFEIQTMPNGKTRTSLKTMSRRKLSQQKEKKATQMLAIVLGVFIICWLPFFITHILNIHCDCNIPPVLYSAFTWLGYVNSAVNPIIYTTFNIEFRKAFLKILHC
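Agonist mode: compounds alone added to overnight-plated D2 PathHunter cells for 90 min at 37 C, with 57 uM final dopamine (EC100) defining full response. Beta-arrestin recruitment detected by chemiluminescent reagent, read after 1 h at ambient temperature.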
Active calls of the source: *; ? = inconclusive; / = not tested or not shown; [ ] = remark or other dose.

SMILES	ClpP mod	Sfp inh	gsp ag	Menin-MLL FL inh	gsp antagonist	PINK1 expr mod	D2 ag
COc1ccc(C2N(C(C)=O)CCCN2S(=O)(=O)c2ccc(C)cc2)cc1 (configuration not stated)	/	9%	-6%	/	-3%	0.0%	-3.1
CCN(CC(=O)NCc1ccc(F)cc1)S(=O)(=O)c1ccc(C)cc1	1.5%	1%	21%	-0.2	9%	-0.7%	-1.4
O=C1c2ccccc2C(=O)N1CSc1nnc(Nc2ccccc2F)s1	28µM*	5%	?	2.0	-12%	-1.0%	-9.4
CCC(C)[C@H](NC(=O)NCc1ccccc1)C(=O)O (some centres not stated)	-1.2%	-3%	35%	1.5	6%	?	-0.4
O=C1NC2(CCCCCC2)C(=O)N1Cc1ccc(Br)cc1	-1.8%	8%	13%	/	-2%	3.3%	-1.6
Cc1sc2nc[nH]c(=S)c2c1-c1ccccc1	-1.0%	6%	9%[15.4 µM]	0.2	-14%	4.0%	-1.0
O=S(=O)(Nc1ccc(-c2cn3cccnc3n2)cc1)c1ccccc1	/	5%	-16%[15.4 µM]	4.1	-20%	0.5%	7.4
CCOC(=O)Cc1csc(NC(=O)Cc2ccccc2)n1	/	5%	-13%	-1.8	9%	1.7%	4.2
O=C(NCc1nc(-c2ccc(C(F)(F)F)cc2)no1)Nc1ccc(F)cc1F	0.9%	27%	0%[15.4 µM]	3.7	-12%	7.2%	-2.1
CCC(C)C(=O)N1c2ccccc2C(=C2SC(C(=O)OC)=C(C(=O)OC)S2)C(=S)C1(C)C (configuration not stated)	-0.6%	50µM*	4%	-7.0	-15%	0.5%	-2.5
O=C(c1sc(N2CCOCC2)nc1-c1ccccc1)N1CCCCC1	-1.3%	16%	-39%[inhibitor]	-2.5	1%	-1.6%	-0.9
Clc1ncccc1-c1nc2ccccc2s1	/	1%	19%[15.4 µM]	-8.0	2%	2.0%	0.0
CCOc1ccc(OCC)c(S(=O)(=O)NC2CC(C)(C)NC(C)(C)C2)c1	-7.7%	14%	0%[15.4 µM]	-0.3	10%	-2.1%	-3.5
CCOC(=O)Cc1csc(SCC(=O)/C(C#N)=C(\C)N)n1	-1.3%	1%	35%	1.4	3%	-0.5%	1.4
CCOC(=O)c1ccccc1NC(=O)/C=C/c1cc(OC)c(OC)c(OC)c1	17%	25%	-7%	-0.7	-14%	5.0%	0.4
Cc1ccc(OC(=O)CCC(=O)Nc2ccc(C(N)=O)cc2)cc1	/	/	-9%[15.4 µM]	/	-1%	-0.8%	-2.6
S=C(NCCc1ccccc1)Nc1ccc(Nc2ccccc2)cc1	/	-16%	15%[15.4 µM]	-0.9	?	?	-5.1
O=C1c2ccccc2C(=O)N1c1ccc(Br)c2cccnc12	3.9%	-24%	?	4.5	0%	0.6%	1.0
CN(C(=O)c1ccncc1)C1CCCCC1	/	4%	-56%[inhibitor]	7.0	-6%	2.3%	4.8
CCOc1ncccc1C(=O)Nc1cc(C(F)(F)F)ccc1N1CCOCC1	19%	/	5%	/	2%	3.9%	-2.5
Cc1nc2cncnc2n(C2CC2)c1=O	/	20%	/	5.5	/	0.3%	/
COc1ccc(CNC(=O)CCCn2ncn3c(cc4occc43)c2=O)cc1	0.0%	12%	18%	1.2	-3%	2.0%	0.1
CCCN(CCC)C(=O)c1ccc2c(c1)OCO2	-2.5%	-8%	13%	-0.9	9%	1.8%	-4.2
COc1ccc(/C=N/NC(=O)c2ccccc2O)cc1Cn1cc([N+](=O)[O-])cn1	-4.4%	-14%	?	2.8	-8%	1.0%	9.6
O=C(N/C(=C/c1cccc([N+](=O)[O-])c1)C(=O)N1CCOCC1)c1ccccc1Br	1.3%	8%	-32%[inhibitor]	/	-4%	5.0%	-4.7
COc1cccc2sc(N(CCN(C)C)C(=O)/C=C/c3cccs3)nc12	-1.1%	1%	3%	0.5	-7%	-1.0%	0.7
Clc1ccc(OCc2nc(-c3ccncc3)no2)cc1	0.1%	5%	13%	1.9	2%	/	-0.1
COc1ccc(N(CC(=O)NCc2ccc(Cl)cc2)S(=O)(=O)c2c(C)n[nH]c2C)cc1	-0.2%	7%	-34%[inhibitor]	-0.1	-4%	-1.9%	-2.3
CN1CCN(C(=O)c2ccc3c(c2)S(=O)(=O)c2ccccc2C3=O)CC1	1.8%	11%	/	0.7	11%	-0.1%	-1.0
CCOC(=O)C1CCCN(Cc2nc(N)nc(Nc3ccccc3OC)n2)C1 (configuration not stated)	-3.0%	-1%	15%	0.2	0%	1.9%	-4.4
CC(=O)N1CCC2(CC1)CN(Cc1ccccc1)C2	/	11%	/	2.0	/	-0.7%	/
CC(C)(C)c1ccc(S(=O)(=O)NCC(=O)N2CCN(Cc3ccccc3)CC2)cc1	2.4%	4%	1%	1.2	0%	-1.3%	-0.5
O=C(c1cc(Br)c(Br)s1)N1CCN(C/C=C/c2ccccc2)CC1	-2.6%	0%	-11%	5.0	-15%	-0.5%	-2.6
COc1cccc(NC(=S)NC(=O)/C=C/c2ccco2)c1	0.6%	-13%	1%[15.4 µM]	?	4%	5.7%	-4.7
O=[N+]([O-])c1ccccc1S(=O)(=O)Nc1ccc(-c2ccc(N3CCOCC3)nn2)cc1	/	/	8%[15.4 µM]	/	?	1.7%	-2.2
CCOC(=O)CC1C(=O)NCCN1C(=O)Nc1ccc(Cl)cc1 (configuration not stated)	1.7%	12%	15%	6.8	5%	-1.1%	-4.3
CCS(=O)(=O)c1nc(S(=O)(=O)c2ccc(Cl)cc2)c(N2CCC(C(N)=O)CC2)s1	-0.2%	3%	13%	/	-5%	1.6%	-2.0
O=C(Nc1ccccc1)N1CCc2c([nH]c3ccccc23)C1C(F)(F)F (configuration not stated)	/	15%	-1%	4.5	-9%	2.1%	-1.5
CC(C)C[C@H]1CNC(=S)N1CC1CCCN1C[C@H](Cc1ccc(O)cc1)N1C[C@H](Cc2ccccc2)N(CC2CCCCCC2)C1=S (some centres not stated)	1.5%	/	/	/	4%	2.6%	1.7
CC1(C(=O)NC2CCCCCC2)CCN1C(=O)C1(c2ccccc2)CC1 (configuration not stated)	0.3%	/	/	/	/	0.0%	-1.0
O=C(C1=C(O)C(=O)N(CCCN2CCOCC2)C1c1ccccn1)c1cc2ccccc2o1 (configuration not stated)	-0.3%	-3%	?	2.5	7%	-0.8%	-4.4
COc1cc2c(C)nc3c(c(C)nn3-c3ccccc3)c2cc1OC	/	18%	3%[15.4 µM]	2.4	8%	13%	-1.8
C[C@@H]1COC(=O)[C@@H](CC(=O)OC(C)(C)C)C/C=C\C[C@@H](CC(=O)NCCO)C(=O)N1	1.3%	/	/	/	12%	0.1%	-0.9
N#Cc1cccc(Nc2c3c(nc4ccccc24)CCC3)c1	/	6%	7%[15.4 µM]	0.6	-16%	1.1%	-3.1
CCOc1cc(-c2noc(CCCC(N)=O)n2)cc(Br)c1OC	0.3%	5%	-5%	-1.0	-10%	-2.5%	-2.6
O=C(NNC(=O)c1cccc2ccccc12)c1ccco1	-2.1%	15%	2%	-1.5	16%	-0.2%	-2.7
CC1CCCC(NC(=O)c2cc(-c3ccncc3)nc3ccccc23)C1C (configuration not stated)	/	/	-42%[15.4 µM]	/	1%	-3.4%	2.7
O=C(CN1CCCC1)Nc1ccc2c(c1)CCC2	/	-5%	0%[15.4 µM]	3.0	-3%	-1.1%	-5.9
Cc1cccc(C)c1NC(=O)CC(NCCc1ccccc1)C(=O)O (configuration not stated)	-1.0%	9%	-29%	1.9	12%	2.7%	0.3
Cc1ccc(CNC(=O)COc2ccc(C)nc2[N+](=O)[O-])cc1	0.8%	-13%	-66%[inhibitor]	6.3	1%	-0.7%	-1.3
The results go on:
SMILES	ClpP mod	Sfp inh	gsp ag	Menin-MLL FL inh	gsp antagonist	PINK1 expr mod	D2 ag
Cc1ccccc1C(=O)NC1CCN(CC(=O)Nc2ccc3c(c2)OCO3)CC1	0.7%	8%	-60%[inhibitor]	-3.3	-4%	0.7%	-3.7
O=C(O)C1C2C=CC3(CN(Cc4ccccn4)C(=O)C13)O2 (configuration not stated)	-1.3%	12%	8%	-0.6	11%	-0.8%	-0.7
COc1cc(C2(c3ccc(O)c(OC)c3)C(=O)N(C)c3ccc(Br)cc32)ccc1O	/	/	24%	/	-1%	1.0%	-2.3
CCN(CC)S(=O)(=O)c1ccc(Cl)c(C(=O)Nc2ccc(Cl)cc2[N+](=O)[O-])c1	0.8%	13%	-45%[inhibitor]	1.8	-14%	8.1%	12
CSCCC(NC(N)=O)C(=O)NCc1cccc(Cl)c1 (configuration not stated)	-4.0%	8%	-14%	0.4	12%	-1.1%	-0.1
COCCCNC(=S)NNC(=O)c1ccc(C(C)(C)C)cc1	2.8%	12%	-6%	2.9	3%	1.8%	-7.5
COc1ccc(OCCC(=O)NCc2ccccc2)cc1	-0.4%	20%	-10%	0.9	1%	-1.5%	-2.0
COc1ccc(CNC(=O)C(=O)NCc2ccncc2)cc1	2.0%	4%	9%	1.3	4%	-2.7%	-3.6
O=C(NC(=S)Nc1ccc2oc(=O)ccc2c1)c1ccccc1F	/	-16%	11%[15.4 µM]	-0.6	-9%	1.8%	-5.1
O=C(c1ccc(Cl)cc1)N(Cc1ccco1)C1CCS(=O)(=O)C1 (configuration not stated)	-0.2%	10%	-29%	-1.8	4%	1.3%	2.0
O=C1CC(c2ccccc2)CN1S(=O)(=O)c1ccccc1 (configuration not stated)	0.1%	12%	4%	1.0	-5%	0.5%	-1.2
COCCNC(=O)c1c(N)n(CCCn2ccnc2)c2nc3ccccc3nc12	16µM*	-10%	14%	0.1	-2%	-0.8%	-0.7
O=C(Cn1ncc2c(=O)oc3ccccc3c21)NCCC1=CCCCC1	0.6%	9%	-36%[inhibitor]	0.1	-14%	-0.9%	-3.2
COc1ccc(-c2nc(CS(=O)CC(=O)NCCc3ccc(OC)c(OC)c3)c(C)o2)cc1 (configuration not stated)	-20%	4%	-12%	-0.3	-2%	-0.5%	-4.6

Compounds were not picked by outcome. Share with any hit: about 5.1%.
